VACV mCherry inh: qHTS for Stage-Specific Inhibitors of Vaccinia Orthopoxvirus: mCherry Reporter Primary qHTS; Potency, µM (top dose mostly 36.5 µM), without a hit: at the top dose activity change, negative = inhibition, actives largely listed as inhibitors; Vaccinia virus mCherry reporter infection, fluorescence; about a quarter of the inactives have no number; 310,000 tested, 0.63% active; active = well fitted inhibition curve with a large enough effect; inconclusive = small, poorly fitted or top-dose-only effect; inactive = no such curve, though single readings can be large or run the other way; tested in A549 cells; also: nearly all actives have a fitted effect of over 35% in size; inactives centre near -10
VACV Venus inh: qHTS for Stage-Specific Inhibitors of Vaccinia Orthopoxvirus: Venus Reporter Primary qHTS; Vaccinia virus Venus reporter expression, fluorescence; Potency, µM (titrated, usually from 36.5 µM), without a hit: top-dose activity change, negative = inhibition, actives largely listed as inhibitors; 330,000 tested, 0.46% active; active means well fitted inhibition curve with a large enough effect; inconclusive means small, poorly fitted or top-dose-only effect; inactive means no such curve, though single readings can be large or run the other way; tested in A549 cells; also: nearly all actives have a fitted effect of over 30% in size; inactives centre near -10
The depositor's hits bear a star; i = inactive; ? = inconclusive; / = no result given; & = joins results of further samples; [ ] = dose if it differs, or a comment. % is scaled to controls: 0 for no effect and ±100 for the full control effect; potency is read from the fitted curve at half-maximal effect.

Each structure is followed by: VACV mCherry inh, VACV Venus inh
Cc1cc(-c2ccccc2)nc(Nc2nc3c(C)cccc3c(=O)[nH]2)n1
 : -11.5%, -5.9%
O=C(NCc1ccccc1)C(c1ccccc1)n1c(-c2ccccn2)nc2ccccc21 (stereo unspecified)
 : 4.5%, -20.9%
CCOc1ccc(C(=O)Nc2cccc(-c3cc4ccccc4oc3=O)c2)cc1[N+](=O)[O-]
 : ?, -29.6%
CCOC(=O)c1c(-c2ccc(C)cc2)csc1NC(=O)c1cc(=O)c2cc(Cl)ccc2o1
 : -0.3%, -2.7%
C=CCn1c(-c2ccncc2)n[nH]c1=S
 : -1.1%, -10.4%
CCN(CC(=O)Nc1ccccc1OC)C(=O)CSCC(=O)Nc1cccc(C)c1
 : -3.0%, -3.8%
O=C(NCC1CCCO1)c1ccc2c(=O)n(CC3CCCO3)c(SCC(=O)N3CCCC3)nc2c1 (stereo unspecified)
 : -5.6%, -2.3%
C=CCC[C@H](Cc1ccc(F)cc1)C(=O)OC[C@H](Cc1c[nH]c2ccccc12)NC(=O)[C@@H](CC=C)CC(=O)NCCO
 : ?, ?
Nc1nc(N)c2c(n1)CN(Cc1ccc(Cl)cc1)C2
 : i, -10.9%
CCN(C[C@H]1N[C@@](CC)(C(=O)OC)[C@H]2C(=O)N(Cc3ccccc3)C(=O)[C@@H]12)C(=O)Nc1ccc(OC)cc1
 : i, -0.2%
CCOC(=O)CSc1ncnc2c1cnn2-c1ccccc1
 : i, -1.3%
CC1CCCC(C)N1C(=O)Cn1c(SCC(=O)Nc2ccc3c(c2)OCO3)nc2ccccc21 (stereo unspecified)
 : -14.2%, -9.8%
COc1ccc(NS(=O)(=O)c2c(C)nc3scc(C)n3c2=O)cc1
 : -8.8%, -5.8%
CCOc1cc(NC(=O)c2ccco2)c(OCC)cc1NC(=O)CCc1ccccc1OC
 : /, 3.1%
COc1ccc([N+](=O)[O-])cc1NC(=O)COC(=O)c1ccccn1
 : i, -11.5%
CCOC(=O)N1CCN(Cc2nc3cc(NC(=O)c4cccc(C)c4)ccc3n2C(C)C)CC1
 : ?, ?
O=C(CSc1nc2c(oc3ccccc32)c(=O)n1CC1CCCO1)NCc1ccccc1 (stereo unspecified)
 : i, -17.0%
C=Cc1ccc(CSc2nnc(C)n3c2cc2occc23)cc1
 : -6.3%, -8.7%
Cc1ccc(OCCn2c(C3CC(=O)N(Cc4ccccc4)C3)nc3ccccc32)cc1 (stereo unspecified)
 : i, -6.1%
O=C(COc1ccc(Br)cc1)Nc1ccc(C(=O)OC2CCCCC2)cc1
 : -17.7%, -22.8%
Cc1onc(-c2c(F)cccc2Cl)c1C(=O)c1ccccc1O
 : -6.5%[7.34 µM], -13.4%[7.34 µM]
CCn1c(SCC(=O)N/N=C/c2cc(OC)c(OC)c(OC)c2)nc2ccccc21
 : -4.9%, -14.7%
Cc1cccc(OCc2nnc(SCC(=O)N3c4ccccc4Sc4ccc(Cl)cc43)o2)c1
 : -2.5%, -12.4%
CC1Cc2ccccc2N1C(=O)c1ccc2snnc2c1 (stereo unspecified)
 : i, 0.0%
CCc1ccccc1NC(=O)CNC(=O)c1cccc(S(=O)(=O)N2CCN(Cc3ccccc3)CC2)c1
 : -6.1%, -21.1%
Cc1ccc(S(=O)(=O)Cc2ccc(C(=O)N3CCN(c4ccccn4)CC3)o2)cc1
 : -0.2%, -12.2%
Cc1ccc(C)c(OCCC(=O)NNC(=O)c2ccncc2)c1
 : -8.6%, 5.2%
Cc1ccsc1C(=O)N(c1nc2ccccc2s1)c1c(C)cccc1C
 : ?, -11.8%
CCNc1nc(NCC)n2c(SCC(=O)c3ccc(C(C)C)cc3)nnc2n1
 : ?, -12.6%
Cc1c(C(C)C)c(=O)n(-c2ccc(S(=O)(=O)NCc3ccccc3)cc2)n1C
 : -20.1%, -11.5%
Cc1ccc(S(=O)(=O)Nc2cc(C(=O)O)ccc2N2CCCCC2)cc1
 : -14.8%, -16.7%
COc1ccc(NC(=O)C2(C)CCCN2C(=O)C(C)C)cc1OC (stereo unspecified)
 : -11.7%, -3.0%
O=C(CCc1nnc(-c2ccsc2)o1)NCc1ccccc1OC(F)(F)F
 : -8.2%, -11.7%
O=C1OC(=O)C2C3CCC(O3)C12 (stereo unspecified)
 : -11.0%, -22.2%
O=C(O)C1CCCN1c1ncccc1[N+](=O)[O-] (stereo unspecified)
 : 4.7%, -2.4%
Clc1ncccc1-c1nc2ccccc2n1Cc1ccccc1
 : -1.9%, -9.9%
O=C(NCc1ccccc1)c1cccc(NC(=O)C2CCCCC2)c1
 : 6.2%, -9.4%
COc1ccccc1N1CCN(C(=O)CN2C(=O)c3ccccc3C2=O)CC1
 : -6.2%, -5.0%
COc1ccc(NS(=O)(=O)c2ccc3nc(COc4cccc5ccccc45)[nH]c3c2)cc1
 : -26.4%, ?
CCOc1nc(NC(=O)NS(=O)(=O)c2cccc(Cl)c2)nc(-c2ccccc2)n1
 : -17.4%, -20.9%
COc1ccc(C(=O)n2nc(-c3ccc(Cl)cc3)nc2NCc2ccco2)cc1
 : -13.3%, -4.7%
O=C1NCC(O)=C1C=NC12CC3CC(CC(C3)C1)C2
 : i, -14.7%&-12.0%
COc1ccc(C2CCCN2CC(O)COc2ccccc2C(C)C)cc1 (stereo unspecified)
 : ?, -4.1%
CC(=O)c1ccc(Oc2ncnc(N)c2[N+](=O)[O-])cc1
 : i, 0.7%
CC1CCN(S(=O)(=O)c2ccc3c(c2)n(C)c(=O)n3C)CC1
 : i, -10.9%
COC(=O)C1=C(C)NC(=O)/C1=C\c1cc(C)n(-c2cccc(C)c2)c1C
 : /, -16.1%
CCN([C@H](CO)CC(C)C)S(=O)(=O)c1ccccc1
 : -26.8%, -9.6%
CCS(=O)(=O)c1ccc(O)c(NC(=O)COc2ccc(OC)cc2)c1
 : -12.6%, -3.9%
N#CC(C#N)=Cc1ccc(OCC(=O)N2CCOCC2)cc1
 : -7.8%, 2.0%
Cc1ccc(NC(=O)CSCC(=O)Nc2ccc(N3CCOCC3)cc2N2CCOCC2)cc1
 : -16.8%, -13.1%
Cc1cc(=O)c2ccccc2s1
 : i, -6.3%
CC1=C(C(=O)Nc2cccc(C(=O)NC3CCCC(C)C3C)c2)SCCO1 (stereo unspecified)
 : 3.6%[7.34 µM], 0.0%[7.34 µM]
COC(=O)c1c(NC(=O)COc2ccc(Cl)cc2C)sc2c1CCCCC2
 : -0.7%, -5.4%
O=C(Nc1c(C(=O)c2ccc(F)cc2)oc2ccccc12)c1cc(-c2ccccc2)on1
 : i, -20.9%
COc1ccc(CN2CCN(C(C)C)C(CCO)C2)cc1Cn1cccn1 (stereo unspecified)
 : i, -10.7%
CCOC(=O)CN1C(=O)C(O)=C(C(C)=O)C1c1ccc([N+](=O)[O-])cc1 (stereo unspecified)
 : /, -2.3%
Cc1cccc(NC(=O)Cc2csc(COc3cccc(C)c3)n2)c1
 : -14.8%, -19.5%
O=C(CNC(=O)c1cccs1)N/N=C/c1cccc(Br)c1
 : -14.6%, -3.8%
CCc1nnc(NC(=O)C2CCCN2S(=O)(=O)c2ccc(C)cc2)s1 (stereo unspecified)
 : i, -15.9%
O=C(NCCS(=O)(=O)N1CCN(c2cccc(Cl)c2)CC1)C(c1ccccc1)c1ccccc1
 : -20.2%, -14.0%

Further entries.
Each structure is followed by: VACV mCherry inh, VACV Venus inh
Cc1ccc(C(=O)c2ccccc2C(=O)OCC(=O)N2CCCC2)cc1
 : -23.2%, 0.2%
COc1ccc(-c2sc3ccccc3c2-c2ccc(OC)cc2F)cc1
 : 0.0%, -11.9%
CCNC(=S)N1CCC(C(=O)c2ccc(F)cc2)CC1
 : -14.0%, -20.3%
COc1ccc(NC(=O)N2CCN(S(C)(=O)=O)CC2)c(OC)c1
 : -5.3%, 3.0%
C/C(=N/NC(=O)OC(C)(C)C)c1ccco1
 : i, 0.0%
O=C(CSc1ncc(-c2ccc(F)cc2)[nH]1)NCc1ccco1
 : i, -20.4%
COc1cc(CCC(=O)Nc2cccc(S(=O)(=O)N(C)C)c2)cc(OC)c1OC
 : -17.9%, -6.9%
Cc1nn2c(N)c(-c3ccccc3)cnc2c1-c1ccccc1
 : -10.8%, -19.8%
O=C(NCC(=O)N1CCCCCC1)c1ccc(Br)cc1
 : -8.0%, -3.6%
CCOc1ccccc1NC(=O)c1c(NCc2sccc2C)sc2c1CCCCC2
 : -8.9%, 7.1%
COc1ccc(CNC(=O)C(=O)NCCCn2ccnc2)cc1
 : i, -6.2%
Cc1ccc(CNC(=O)Cn2cc(C(=O)c3ccc(F)cc3)c(=O)c3ccc(C)nc32)cc1
 : 0.1%, -4.1%
Cc1cc(C)nc(SCCN2CCOCC2)n1
 : i, -9.9%
Cn1c(=O)c2c(nc(Oc3ccccc3)n2C)n(C)c1=O
 : /, -21.2%
O=[N+]([O-])c1cccnc1N1CCC(c2cc(-c3ccc(Cl)cc3)n[nH]2)CC1
 : -24.2%, -21.3%
CCc1ccccc1NC(=O)c1sc2nc3n(c(=O)c2c1C)CCC3
 : -12.4%, -5.6%
COC(=O)C1CCN(Cc2ccc3c(c2)CN(C(=O)c2cc(C4CC4)on2)CCO3)CC1
 : -3.3%, 8.7%
O=C(CCN1C(=O)c2cccc3cccc(c23)C1=O)Nc1ccon1
 : -4.1%, -13.2%
O=C(Nc1ccc(S(=O)(=O)N2CCOCC2)cc1)c1cc([N+](=O)[O-])ccc1Cl
 : ?, ?
O=C(Nc1ccc2oc(-c3cccnc3)nc2c1)c1cccc(Br)c1
 : -4.9%, 11.4%
N[C@H](C(=O)O)c1ccc(O)c(C(=O)O)c1
 : -12.2%, -7.5%
Nn1c(Cc2ccccc2F)nnc1SCn1nnc2ccccc2c1=O
 : -10.3%, -9.0%
CCCc1ccc(C(O)c2ncc(-c3ccc(OC)cc3)[nH]2)cc1 (stereo unspecified)
 : 11.8%, -4.8%
CC1CCCN(C(=O)c2ccc3c(c2)C(=O)N(CCC2=CCCCC2)C3=O)C1 (stereo unspecified)
 : i, 0.6%
COc1cc(-c2cc(NC(C)=O)c3ncc(-c4ccc(C(C)=O)cc4)n3c2)cc(OC)c1OC
 : -15.4%, -11.5%
CN(CC(=O)Nc1ccccc1Cl)C(=O)CSc1nncn1C
 : i, -3.9%
Cc1cc(NC(=O)CSc2nnc(C(C)N(C)C)n2Cc2ccccc2)no1 (stereo unspecified)
 : -3.5%, -0.3%
COc1cccc(N/C(SCc2ccccc2F)=C(/C#N)C(=O)NCc2cccs2)c1
 : ?, -7.3%
C(=Nc1ccc2ccccc2n1)c1cccnc1
 : 29.4%, -12.1%
COc1ccc(C(C)=O)cc1CC(=O)Nc1ccccc1-c1ccccc1
 : i, -11.6%

Another view of two compounds above:
molecule	VACV mCherry inh	VACV Venus inh
CCCc1ccc(C(O)c2ncc(-c3ccc(OC)cc3)[nH]2)cc1 (stereo unspecified)	11.8%	-4.8%
O=C(CCN1C(=O)c2cccc3cccc(c23)C1=O)Nc1ccon1	-4.1%	-13.2%

Continued:
Each structure is followed by: VACV mCherry inh, VACV Venus inh
CCCOc1ccc(-c2nc(N3CCC(C)CC3)c3ccccc3n2)cc1
 : 0.7%, -4.9%
Cc1c(NS(=O)(=O)c2ccc3c(c2)c(=O)n(C)c(=O)n3C)c(=O)n(-c2ccccc2)n1C
 : -13.3%, -11.0%
CCOC(=O)N1CCC(NC(=O)CSCc2nc(-c3ccc(OC)cc3)oc2C)CC1
 : i, -14.3%
CN(C(=O)c1ccc(NC(=O)Cc2ccc(NC(=O)C3CCCN(C(=O)C4CC4)C3)cc2)cc1)C1CCCC1 (stereo unspecified)
 : -1.7%, 7.1%
O=C(Nc1ccncc1)Nc1ccccn1
 : /, -16.2%
O=C(Nc1ccc2ncccc2c1)c1ccccc1Br
 : -10.3%, -16.3%
O=S(=O)(c1ccc(NC(=S)N2CCOCC2)cc1)N1CCCCC1
 : -28.6%, -19.8%
O=C(CN1C(=O)CCc2cc(S(=O)(=O)N3CCOCC3)ccc21)Nc1cccc(Cl)c1
 : -11.5%, -3.3%
Cc1nnc(NC(=O)c2cc3n(n2)C(C(F)(F)F)CC(C2CC2)N3)s1 (stereo unspecified)
 : -6.7%[1.46 µM], -14.8%
COc1ccc(S(=O)(=O)N(CC(=O)NC2CCCCC2)c2ccc(F)cc2)cc1
 : -8.1%, -5.2%
O=C(CSc1cn(CCNC(=O)c2ccccc2F)c2ccccc12)NCC1CCCO1 (stereo unspecified)
 : -7.2%, -14.0%
CCC(=O)Nc1ccc(Cl)c(Cl)c1
 : -0.4%, -13.1%&0.0%
Cc1[nH]nc(C(F)(F)F)c1N=NN1CCOCC1
 : ?, ?
Cc1ccc(CN(C)C(=O)c2ccc3c(c2)NC(=O)CS3)o1
 : -6.6%, 5.7%
CCn1ccc2cc(S(=O)(=O)N3CCCN(C(=O)Nc4ccc(C)cc4)CC3)ccc21
 : -9.9%, -3.3%
COC(=O)c1ccc2c(=O)[nH]c(COC(=O)c3c(-c4ccccc4)noc3C)nc2c1
 : -6.0%, -2.1%
O=C(COc1ccc(S(=O)(=O)N2CCOCC2)cc1Cl)N1CCCC1
 : 11.7%, 2.6%

Reformatted with tabs: part of the list above
SMILES	VACV mCherry inh	VACV Venus inh
O=C(CN1C(=O)CCc2cc(S(=O)(=O)N3CCOCC3)ccc21)Nc1cccc(Cl)c1	-11.5%	-3.3%
Cc1nnc(NC(=O)c2cc3n(n2)C(C(F)(F)F)CC(C2CC2)N3)s1 (stereo unspecified)	-6.7%[1.46 µM]	-14.8%
COc1ccc(S(=O)(=O)N(CC(=O)NC2CCCCC2)c2ccc(F)cc2)cc1	-8.1%	-5.2%
